High-throughput results from PubChem.
DUX4 inh: blocks DUX4-driven transcriptional activation; 293T-iDUX4 ZSCAN4-Gaussia luciferase reporter, 24 h; hits give low values; activity change, negative = inhibition, % (test concentration not listed); actives 0.8% (n = 37,000); AID 1224904;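 active = -10% or lower and over 25 points stronger than a control reporter; inconclusive = -10% or lower with a smaller gap; inactive = above -10%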;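 also: 0% = median of neutral control wells and -100% = median of positive control wells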
DUX4 inh difference: also measured in DUX4 inh; calls as there; Gaussia minus Italica difference, %; measured here: selective DUX4 reporter inhibition;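 worked out from the two reporters; negative = selective loss of the DUX4 reporter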
DUX4 inh control: also measured in DUX4 inh; calls as there; activity change, negative = inhibition, %; measured here: Italica tet-on control reporter;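 0 = neutral control and -100 = positive control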
Numbers without * were called inactive; ? = inconclusive; . = not tested or not shown; & = joins results of further samples.

structure | DUX4 inh | DUX4 inh difference | DUX4 inh control
C[C@H](CO)N1C[C@H](C)[C@H](CN(C)Cc2ccc3c(c2)OCO3)Oc2ccc(NC(=O)Cc3cn(C)c4ccccc34)cc2C1=O | -1.2 | 0.2 | -1.4
COc1ccc2c3c([nH]c2c1)[C@H](CO)N(C(=O)CC1CC1)CC31CN(C(=O)CC2CC2)C1 | 6.3 | 15.7 | -9.4
CC(=O)N1CC(=O)N2[C@H](CO)[C@@H](c3ccc(C#CC(C)C)cc3)[C@H]2C1 | 10.1 | 5.3 | 4.8
N#Cc1ccc(-c2ccc3c(c2)[C@@H]2[C@@H](CCN2C(=O)Cc2ccccc2)[C@@H](CO)N3)cc1 | ? | . | .
CN(C)CCCNC(=O)[C@@H]1[C@@H](CO)[C@@H]2Cn3c(ccc(-c4ccncc4)c3=O)[C@H]1N2C(=O)CC1CC1 | 1.4 | 0.0 | 1.3
O=C(NCC(F)(F)F)[C@@H]1[C@@H](CO)[C@@H]2Cn3c(ccc(-c4cccnc4)c3=O)[C@H]1N2Cc1ccccc1 | -2.3 | -0.8 | -1.5
CCCNC(=O)[C@@H]1[C@@H](CO)[C@@H]2Cn3c(ccc(C4=CCCCC4)c3=O)[C@H]1N2CCC | 0.2 | 0.6 | -0.3
COC(=O)C[C@H]1CC[C@@H]2[C@H](COc3ccc(NC(=O)Nc4cc(C)cc(C)c4)cc3C(=O)N2C)O1 | 4.9 | -2.0 | 6.9
Cc1nn(C)cc1NC(=O)C[C@H]1CC[C@H]2[C@H](COc3ccc(NC(=O)C4CCOCC4)cc3C(=O)N2C)O1 | -7.8 | -3.2 | -4.6
COc1ccc(NC(=O)N(C)C[C@@H]2OCCCC[C@H](C)Oc3ccc(NS(=O)(=O)c4cccs4)cc3C(=O)N([C@H](C)CO)C[C@H]2C)cc1 | -1.0 | 2.5 | -3.4
COc1ccccc1NC(=O)N1C[C@H](O)COC[C@@H]2O[C@@H](CC(=O)NCc3ccccc3)CC[C@H]21 | 5.5 | 5.0 | 0.5
C[C@H]1CN([C@@H](C)CO)C(=O)CCCn2nncc2CO[C@@H]1CN(C)C(=O)OCc1ccccc1 | -1.5 | -4.9 | 3.4
COCC(=O)Nc1ccc2c(c1)C(=O)N(C)[C@H]1CC[C@@H](CC(=O)NCC3CC3)O[C@H]1CO2 | -2.1 | -0.8 | -1.3
O=C(N[C@H]1C=C[C@H](CC(=O)N2CCC(Cc3ccccc3)CC2)O[C@H]1CO)c1cnccn1 | -3.2 | -2.9 | -0.3
CCC(=O)N1C[C@@H]2[C@H](c3ccccc31)[C@@H](CO)N2Cc1ccccc1Cl | -3.1 | -6.6 | 3.5
COc1cccc(NC(=O)C[C@@H]2CC[C@@H]3[C@H](COc4ccc(NC(=O)C5CC5)cc4C(=O)N3C)O2)c1 | 4.5 | 3.8 | 0.6
Cc1ccc(S(=O)(=O)N2C[C@H](O)COC[C@H]3O[C@H](CC(=O)NCCCN(C)C)CC[C@@H]32)cc1 | 9.6 | 9.7 | -0.1
CNC(=O)C[C@@H]1CC[C@H]2[C@@H](COC[C@H](O)CN2Cc2ccc(C(F)(F)F)cc2)O1 | 1.0 | 5.5 | -4.5
C[C@@H]1CCCCO[C@@H](CN(C)Cc2ccc(C(=O)O)cc2)[C@@H](C)CN([C@H](C)CO)C(=O)c2cc(NC(=O)NC3CCCCC3)ccc2O1 | 1.4 | 2.3 | -0.8
O=C(C[C@H]1C[C@@H]2c3cc(NC(=O)Nc4ccccc4)ccc3O[C@@H]2[C@H](CO)O1)NCCN1CCCCC1 | -0.3 | -1.0 | 0.7
C[C@@H]1CN([C@H](C)CO)C(=O)c2ccccc2-c2ccccc2CO[C@H]1CN(C)S(=O)(=O)c1ccsc1 | -2.3 | -6.3 | 4.0
CCN1[C@H](C(=O)NC2CCCCC2)[C@@H](CO)[C@@H]2Cn3c(ccc(-c4cccnc4)c3=O)[C@@H]21 | ? | . | .
O=C(NCC1CCCCC1)[C@@H]1[C@@H](CO)[C@@H]2Cn3c(ccc(-c4ccccc4F)c3=O)[C@H]1N2 | -4.0 | -8.0 | 3.9
COc1ccc(NC(=O)N2CC[C@@H]3[C@@H](CO)N(C)c4ccc(Br)cc4[C@@H]32)cc1 | 4.3 | -5.1 | 9.5
COc1ccc2c3c(n(C)c2c1)[C@H](CO)N(CC1CC1)CC31CCN(C(=O)c2ccccc2)CC1 | ? | . | .

More results
structure | DUX4 inh | DUX4 inh difference | DUX4 inh control
CCCNC(=O)N1C[C@@H]2[C@H](c3ccccc31)[C@@H](CO)N2C(=O)NC(C)C | -3.6 | -3.8 | 0.2
CCCNC(=O)N1[C@H](CNC(C)=O)[C@@H](c2ccccc2)[C@@H]1CO | 3.3 | 1.6 | 1.7
C[C@H]1CN([C@@H](C)CO)C(=O)c2c(c3ccccc3n2C)-c2ccccc2CO[C@@H]1CN(C)C(=O)Nc1cccc(Cl)c1Cl | ? | . | .
COc1ccccc1NC(=O)N(C)C[C@H]1OCc2cn(nn2)CCCC(=O)N([C@@H](C)CO)C[C@@H]1C | 1.7 | 0.0 | 1.7
C[C@@H]1CN([C@H](C)CO)C(=O)c2cc(NS(=O)(=O)c3ccc(F)cc3)ccc2O[C@@H]1CN(C)C(=O)Nc1ccccc1 | -0.4 | -2.3 | 1.9
Cc1ccccc1-c1ccc(C2[C@H]3CNC[C@@H]2N3C(=O)Nc2ccc(F)cc2)cc1 (stereo partly specified) | 18.5&7.5 | 18.2&-0.2 | 0.3&7.7
O=C(Cc1ccccc1)N1CC[C@H]2[C@H](CO)Nc3ccc(C#Cc4cccc(F)c4)cc3[C@H]21 | -3.9 | -13.7 | 9.7
C[C@@H]1CN([C@H](C)CO)C(=O)c2cc(C#CC3CC3)cnc2O[C@@H]1CN(C)Cc1ccccc1C(=O)O | 0.6 | -2.0 | 2.7
CO[C@@H]1CN(C)C(=O)c2ccc(NC(=O)C3CC3)cc2OC[C@@H](C)N(C(C)=O)C[C@@H]1C | 5.9 | 5.5 | 0.4
N#Cc1ccc(-c2ccc([C@@H]3[C@H]4CNC[C@@H]3N4Cc3ccc4c(c3)OCO4)cc2)cc1 | ? | . | .
C/C=C/c1ccc2c(c1)O[C@@H](CNC)[C@H](C)CN([C@@H](C)CO)S2(=O)=O | 1.9 | -0.8 | 2.7
C/C=C/c1cnc2c(c1)C(=O)N([C@@H](C)CO)C[C@H](C)[C@H](CN(C)S(=O)(=O)c1ccc(OC)cc1)O2 | -2.9 | -1.6 | -1.3
C[C@@H]1CCCCO[C@@H](CN(C)S(C)(=O)=O)[C@@H](C)CN([C@@H](C)CO)C(=O)c2cc(N(C)C)ccc2O1 | -6.0 | -4.9 | -1.1
COc1ccc(S(=O)(=O)N2CCC3(CC2)CN(C(=O)CN(C)C)[C@H](CO)c2c3c3ccc(OC)cc3n2C)cc1 | ? | . | .
COCC(=O)N1[C@H](CO)[C@H](c2ccccc2)C12CN(C(=O)c1ccccc1)C2 | -3.6 | -5.9 | 2.3
CCN(C[C@@H]1[C@@H](c2ccc(C3=CCCCC3)cc2)[C@@H](CO)N1C(C)=O)C(C)=O | 2.0 | -0.2 | 2.2
CC(C)NC(=O)N(C)C[C@H]1Oc2c(NS(=O)(=O)c3cccs3)cccc2C(=O)N([C@H](C)CO)C[C@@H]1C | -4.7 | -5.6 | 0.9
C[C@H]1CN([C@@H](C)CO)C(=O)c2c(c3ccccc3n2C)-c2ccccc2CO[C@@H]1CN(C)Cc1ccc(-c2ccccc2)cc1 | -41.4* | -38.3* | -3.1*
Cc1cccc(S(=O)(=O)N2C[C@H]3[C@@H](c4ccccc42)[C@@H](CO)N3CC2CCCC2)c1 | -0.4 | 1.0 | -1.4
O=C(C[C@H]1CC[C@H]2[C@@H](COC[C@H](O)CN2Cc2ccccc2F)O1)NC1CCC1 | 1.8 | -2.7 | 4.4
O=C(C[C@@H]1C[C@@H]2c3cc(NC(=O)CC4CC4)ccc3O[C@@H]2[C@@H](CO)O1)NCc1cc(F)ccc1F | 2.4 | -0.7 | 3.1
COCC(=O)Nc1ccc2c(c1)C(=O)N(C)C[C@@H](OC)[C@H](C)CN(CCc1ccccc1)[C@@H](C)CO2 | 1.0 | -2.5 | 3.5
CCC(=O)N1CC[C@@H]2[C@@H](CO)N(C)c3ccc(-c4ccccc4)cc3[C@@H]21 | -0.6 | 4.4 | -5.0
O=S(=O)(c1ccc(F)cc1)N1CC[C@@H]2[C@@H](CO)Nc3ccc(-c4ccccc4F)cc3[C@@H]21 | -4.3 | 10.8 | -15.2
COc1ccc2c3c([nH]c2c1)[C@@H](CO)N(S(C)(=O)=O)CC31CCN(Cc2ccccc2)CC1 | ? | . | .

Next entries.
structure | DUX4 inh | DUX4 inh difference | DUX4 inh control
CCNC[C@@H]1[C@H](c2ccccc2)[C@H](CO)N1C(=O)Cc1ccccn1 | -2.9 | -1.8 | -1.1
CC(=O)N1CC(=O)N2[C@H](CO)[C@@H](c3ccc(C#Cc4cccnc4)cc3)[C@H]2C1 | 0.2 | -14.5 | 14.8
COc1cccc(CN2[C@@H](CO)[C@@H](c3ccccc3)C23CN(C(=O)C2CCOCC2)C3)c1 | 3.0 | 6.9 | -3.9
CCCNC(=O)[C@@H]1[C@@H](CO)[C@@H]2Cn3c(ccc(/C=C/c4ccccc4)c3=O)[C@@H]2N1CC | ? | . | .
C/C=C/c1ccc([C@H]2[C@H]3CN(S(=O)(=O)c4cccc(F)c4)CC(=O)N3[C@H]2CO)cc1 | 5.8 | 7.0 | -1.3
O=C(C[C@H]1C=C[C@@H](NC(=O)C2CCC2)[C@@H](CO)O1)NC1CCCCC1 | 1.4 | -0.5 | 1.9
COc1ccc2c3c([nH]c2c1)[C@H](CO)N(Cc1ccc(Cl)cc1)CC31CCN(C(=O)CN(C)C)CC1 | 11.3 | 8.4 | 2.9
CC=Cc1ccc2n(c1=O)C[C@@H]1[C@@H](CO)[C@H](C(=O)NCC3CC3)[C@H]2N1Cc1cccnc1 (mixture of isomers) | 12.3 | 7.4 | 4.9
COc1cccc(NC(=O)Nc2ccc3c(c2)C(=O)N(C)[C@H]2CC[C@@H](CC(=O)O)O[C@H]2CO3)c1 | 0.3 | 1.2 | -0.9
O=C(Nc1cccc(F)c1)N1CCCCN2[C@H](CO)[C@H](c3ccc(-c4ccncc4)cc3)[C@H]2C1 | ? | . | .
CCCC(=O)Nc1ccc2c(c1)C(=O)N(C)C[C@@H](OC)[C@H](C)CN(C(=O)CN1CCOCC1)[C@H](C)CO2 | -2.3 | -0.8 | -1.6
C[C@@H]1CN([C@H](C)CO)S(=O)(=O)c2ccc(C#Cc3cccc(F)c3)cc2O[C@H]1CN(C)S(=O)(=O)c1cn(C)cn1 | -2.0 | -1.8 | -0.2
C[C@H](CO)N1C[C@H](C)[C@@H](CN(C)Cc2ccc3c(c2)OCCN3C)OCc2cnnn2CCCC1=O | 5.5 | 10.8 | -5.2
O=C(C[C@H]1CC[C@@H](NS(=O)(=O)c2cccc(F)c2)[C@@H](CO)O1)NCc1ccc2c(c1)OCO2 | -0.4 | 1.8 | -2.1
C[C@H]1CN([C@@H](C)CO)C(=O)c2cc(NC(=O)Cc3ccccc3)ccc2O[C@H]1CN(C)C(=O)NC1CCCCC1 | -2.9 | -4.3 | 1.5
CC(=O)NC[C@H]1[C@H](c2ccc(C3=CCCC3)cc2)[C@H](CO)N1C(=O)NC(C)C | -1.5 | 4.1 | -5.6
CCCNC(=O)Nc1ccc2c(c1)OC[C@@H](C)N(Cc1cncnc1)C[C@@H](C)[C@H](OC)CN(C)C2=O | -1.5 | 0.2 | -1.7
O=C(NCc1cc(F)cc(F)c1)[C@H]1[C@H](CO)[C@H]2Cn3c(cccc3=O)[C@@H]1N2 | 2.9 | 3.8 | -0.9
COc1ccc(S(=O)(=O)N(C)C[C@@H]2Oc3ccc(N(C)C)cc3CC(=O)N([C@@H](C)CO)C[C@H]2C)cc1 | -4.8 | 0.1 | -4.9
C[C@H](CO)N1C[C@H](C)[C@@H](CN(C)C(=O)Nc2ccc(C(F)(F)F)cc2)OCCCC[C@H](C)Oc2ccc(NS(=O)(=O)c3cn(C)cn3)cc2C1=O | 2.0 | 5.8 | -3.8
COc1ccc(S(=O)(=O)N(C)C[C@@H]2Oc3ccc(NS(=O)(=O)c4c(C)noc4C)cc3C(=O)N([C@@H](C)CO)C[C@@H]2C)cc1 | 1.4 | 3.3 | -1.9
COc1ccc(NC(=O)N(C)C[C@@H]2Oc3ccc(NC(=O)C4CCCCC4)cc3CC(=O)N([C@H](C)CO)C[C@H]2C)cc1 | -2.7 | -6.7 | 4.0
C[C@@H]1CN([C@@H](C)CO)S(=O)(=O)c2ccc(-c3cccc(C#N)c3)cc2O[C@@H]1CN(C)CC1CC1 | -7.5 | 1.0 | -8.5
CCC(=O)N1CC(=O)N2[C@H](CO)[C@H](c3ccc(C#CC(C)C)cc3)[C@@H]2C1 | 10.6 | -3.3 | 13.9
CCCC#Cc1ccc2c(c1)[C@@H]1[C@@H](CCN1S(=O)(=O)c1ccccc1C)[C@@H](CO)N2 | 4.7 | 1.5 | 3.2
CO[C@H]1CN(C)C(=O)c2ccc(NS(=O)(=O)c3ccc(C)cc3)cc2OC[C@H](C)N(C)C[C@@H]1C | 1.7 | -3.7 | 5.3
COc1ccc(C(=O)N2C[C@@H]3[C@H](c4ccccc42)[C@H](CO)N3Cc2ccccc2)cc1 | 0.1 | 2.9 | -2.8
C[C@@H]1CN([C@@H](C)CO)C(=O)c2ccccc2-c2ccccc2CO[C@@H]1CN(C)S(=O)(=O)c1cccc(F)c1 | ? | . | .

In the list so far, these have a CF3 group.
structure | DUX4 inh | DUX4 inh difference | DUX4 inh control
O=C(NCC(F)(F)F)[C@@H]1[C@@H](CO)[C@@H]2Cn3c(ccc(-c4cccnc4)c3=O)[C@H]1N2Cc1ccccc1 | -2.3 | -0.8 | -1.5
CNC(=O)C[C@@H]1CC[C@H]2[C@@H](COC[C@H](O)CN2Cc2ccc(C(F)(F)F)cc2)O1 | 1.0 | 5.5 | -4.5
C[C@H](CO)N1C[C@H](C)[C@@H](CN(C)C(=O)Nc2ccc(C(F)(F)F)cc2)OCCCC[C@H](C)Oc2ccc(NS(=O)(=O)c3cn(C)cn3)cc2C1=O | 2.0 | 5.8 | -3.8

Some of the compounds tested; rates above refer to the full screens.
